Screens from PubChem.
ClpP mod: qHTS Assay for Activators of ClpP. ATP-dependent Clp protease proteolytic subunit (Bacillus subtilis (strain 168)), P80244. purified B. subtilis ClpP, FRET peptide cleavage, 20 min. Potency, µM (top dose mostly 57.5 µM), inactives show top-dose activity change, negative = active. hit rate 1.9% among 340,000; active = well fitted falling curve with a large enough effect; inconclusive = small, poorly fitted or top-dose-only effect; inactive = no such curve, though single readings can be large or run the other way; also: potency is read from the fitted curve at half-maximal effect; the source files actives as falling curves though it sought activators and does not explain the sign; nearly all actives have a fitted effect of over 65% in size; many hits overshoot -100%
Target sequence (P80244 whole entry, looked up): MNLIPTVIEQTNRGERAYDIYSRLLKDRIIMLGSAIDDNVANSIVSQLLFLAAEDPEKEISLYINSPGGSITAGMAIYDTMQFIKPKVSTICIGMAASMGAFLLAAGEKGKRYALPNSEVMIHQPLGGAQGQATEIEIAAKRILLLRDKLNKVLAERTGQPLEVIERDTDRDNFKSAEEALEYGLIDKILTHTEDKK
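FRET quenching reversal measured ClpP activation: 10 microg/mL B. subtilis ClpP at pH 8 with the FRET-FV decapeptide, read at 430 nm after 320 nm excitation. The 20-min minus 0-min signal was scaled between DMSO/no-enzyme wells and ADEP (5.8 microM final).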
gsp ag: agonists of gsp mutant (McCune-Albright syndrome) | hit rate 0.13% among 340,000 | AID 624287 | Potency, µM (highest dose often 76.9 µM), for inactives: top-dose activation (cAMP increase), usual class: activators | gsp mutant cells, cAMP HTRF, 30 min; control for the full effect not named in the record; active = well fitted activation curve with a large enough effect; inconclusive = small, poorly fitted or top-dose-only effect, or another doubt; inactive = no such curve, though single readings can be large or run the other way; cell line not stated here;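 also: phosphodiesterase inhibitor Ro 20-1724 added with compounds to block cAMP breakdown; potency is read from the fitted curve at half-maximal effect; nearly all actives have a fitted effect of over 60% in size; about a fifth of the inactives were tested at one dose only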
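Cells in DMEM/10% FBS with G418 were pretreated with compounds in DMSO plus […] (300 uM stock) for 30 min at 37C. cAMP was measured by HTRF (cAMP-d2 plus anti-cAMP antibody-K) after 30 min at room temperature.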
D2 potentiator: positive allosteric modulators of human D2 dopamine receptor | P14416 | DiscoveRx D2 beta-arrestin cells, luminescence, 90 min; 100% = 57 uM dopamine signal | potentiation, % (no concentration beside the values) | hit rate 0.23% among 360,000 | AID 624464; active = potentiation of 50% or more; inconclusive = 30% to 50%; inactive = 30% or less;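 also: compound concentration not given in the record; tested on top of an EC20 dose of dopamine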
Target sequence (P14416 whole entry, looked up): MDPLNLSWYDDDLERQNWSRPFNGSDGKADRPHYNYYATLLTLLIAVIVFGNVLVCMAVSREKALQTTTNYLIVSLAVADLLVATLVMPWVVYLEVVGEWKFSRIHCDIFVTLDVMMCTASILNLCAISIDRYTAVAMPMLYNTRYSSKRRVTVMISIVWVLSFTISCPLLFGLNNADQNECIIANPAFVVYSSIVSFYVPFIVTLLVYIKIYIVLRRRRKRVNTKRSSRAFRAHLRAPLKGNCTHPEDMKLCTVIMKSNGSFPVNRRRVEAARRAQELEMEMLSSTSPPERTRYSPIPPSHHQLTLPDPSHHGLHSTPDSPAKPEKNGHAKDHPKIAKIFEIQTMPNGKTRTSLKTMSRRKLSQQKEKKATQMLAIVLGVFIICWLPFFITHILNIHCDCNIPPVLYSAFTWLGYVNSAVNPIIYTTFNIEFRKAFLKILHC
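PathHunter beta-arrestin assay in DiscoveRx D2 cells. Compounds were added with an EC20 of dopamine (50 nM final) for 90 min at 37 deg C. Luminescence was read 1 h after detection reagent, with 57 uM dopamine as the EC100 control.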
gsp antagonist: gsp mutant antagonism; Potency, µM (titrated, usually from 76.9 µM), for inactives: top-dose activity change, negative = inhibition, usual class: inhibitors; gsp-mutant cells, cAMP HTRF, 30 min; control for the full effect not named in the record; AID 624288; hit rate 0.4% among 340,000; active = falling curve of any shape with a large fitted effect; inconclusive = falling curve, mostly with a smaller effect; inactive = flat or rising curve; cell line not stated here;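 also: intracellular cAMP measured with PDE inhibitor Ro 20-1724 present during compound exposure; potency is read from the fitted curve at half-maximal effect; % is scaled to controls: 0 for no effect and ±100 for the full control effect; nearly all actives have a fitted effect of over 65% in size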
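Cells in G418 medium, seeded 16-24 h, 37C; buffer exchange to DPBS + 1 mM CaCl2, 0.5 mM MgCl2, 0.05% BSA; cpds in DMSO + […] (300 uM stock), 30 min 37C; HTRF cAMP detection.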
Menin-MLL FL inh: menin-MLL binding inhibition, fluorescein peptide | Fluorescence polarization, fluorescein-MLL peptide displacement from menin | AID 1766 | 290,000 tested, under 10 active | FP activity change, % at 61.4 µM; inconclusive = falling polarisation curve, or a change in total fluorescence; inactive = total fluorescence flat and polarisation flat or rising; no compound was filed as active; the % refers to the polarisation; negative = inhibition;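 also: % of control where 0% means no effect; inhibitors lower the polarisation; unlabelled MLL peptide was the positive control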
Sfp PPTase inh: Sfp phosphopantetheinyl transferase inhibition; Potency, µM, inactives show max response, negative = inhibition, most hits filed as inhibitors; AID 1490; Q9F4F7; Biochemical Sfp PPTase activity, qHTS; hit rate 3.5% among 310,000; active = well fitted inhibition curve with a large enough effect; inconclusive = small, poorly fitted or top-dose-only effect, or another doubt; inactive = no such curve, though single readings can be large or run the other way;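 also: the enzyme is Sfp with the accession as filed and its product quenches rhodamine fluorescence; potency is read from the fitted curve at half-maximal effect; 0% = enzyme reaction without inhibitor and -100% = no enzyme wells; top concentration of the series not given in the record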
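Sfp 15 nM + cpd, 15 min RT; start w/ rhodamine-CoA 5 uM, BHQ-2-YbbR 12.5 uM (final); 50 mM Hepes pH 7.6, 10 mM MgCl2, 0.01% NP-40, 0.01% BSA; read 525/598 nm at 0 and 30 min.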
TRPV1 PAM: potentiators of human vanilloid receptor 1 (TRPV1); TRPV1-expressing cells, Fluo-8 calcium influx, capsaicin EC20 potentiation; host cell line not named in the record; control for the full effect not named in the record; potentiation, % at 8.33 µM; hit rate 0.02% among 320,000; active means potentiation above 80%; inconclusive means 30% to 80%; inactive means below 30%; also: 0% is about no effect
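Fluo-8 calcium influx in TRPV1-expressing cells, kinetic read (ex 480/em 520 nm). Compound added and read 3 min for agonist activity, followed by capsaicin at EC20 final and 2 min further read for enhancement.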
* marks the source's active call; other numbers are inactive results; ? = inconclusive; / = not tested or not shown; [ ] = dose if it differs, or a comment.

SMILES | ClpP mod | gsp ag | D2 potentiator | gsp antagonist | Menin-MLL FL inh | Sfp PPTase inh | TRPV1 PAM
CC(OC(=O)COc1cccc2c1OC(C)(C)C2)C(=O)Nc1ccc(S(N)(=O)=O)cc1 (stereo unspecified) | 0.6% | 1% | -16 | -12% | / | / | -2
NC(=O)CC[C@@H]1NC(=O)[C@@H]2CCCN2C(=O)c2cc([N+](=O)[O-])cc(I)c2NCCC[C@@H](C(N)=O)NC1=O | 1.7% | ? | -2 | 12% | 3.7 | 5% | -1
O=C1N[C@H](Cc2ccccc2)COC(=O)[C@@H](Cc2ccc(F)cc2)CC/C=C/C[C@H]1CC(=O)N(CCO)Cc1ccccc1 | 0.3% | 14% | -2 | -19% | / | / | /
COc1ccc(-c2nc(-c3cccs3)no2)cc1 | / | 10% | -4 | 4% | 0.9 | -22% | -28
COc1cc2[nH]c(=O)c(C(=O)NCCCN3CCOCC3)c(O)c2cc1OC | / | -5%[15.4 µM] | -9 | 1% | -0.5 | 2% | -5
CC(=O)Nc1ccc2c(c1)ncn2-c1ccccc1 | / | -4%[15.4 µM] | -1 | 2% | 0.2 | -15% | -1
CC1(c2cccc(Br)c2)NC(=O)N(CC(=O)NC2CCCCC2)C1=O (stereo unspecified) | -0.9% | -5% | -2 | 16% | / | / | -5
CC(=O)Nc1ccc(S(=O)(=O)NC2(C(F)(F)F)NC(=O)N(c3ccccc3F)C2=O)cc1 (stereo unspecified) | 1.5% | -14% | -1 | 14% | -0.1 | 16% | -1
CCCCn1c(O)c(/C=C/C=C/C=Nc2ccccc2)sc1=S | / | 0%[15.4 µM] | 9 | / | ? | -34% | 7
Cc1cccc(NC(=O)CSc2nc3ccccc3c(=O)n2C)c1 | / | -42%[inhibitor] | 8 | -27% | -4.4 | -6% | 21
CCCCCn1c(=O)[nH]c2cc(C(=O)NCCN(CC)CC)ccc2c1=O | 25µM* | -6% | -8 | 2% | 0.7 | 21% | -12
COC(=O)[C@H]1C[C@@]2(O)CN(S(=O)(=O)c3ccc(C)cc3)C[C@@]2(OC(=O)NCC2CCCCC2)C[C@H]1C(=O)OC | 0.2% | -5% | -3 | / | / | / | /
CCOc1ccc(S(=O)(=O)NCCOC)cc1C | 0.0% | -9% | -13 | -18% | 0.8 | 11% | -5
CCn1c(SCC(=O)NC2CCCCC2)nnc1-c1ccco1 | / | ? | -5 | 5% | -5.4 | 18% | -3
COc1ccc(C(=O)C(CCC(CNC(C)(C)C)C(=O)c2ccc(OC)cc2)CNC(C)(C)C)cc1 (stereo unspecified) | 28µM* | -11% | -30 | -5% | 0.4 | 7% | 0
Cc1ccc(NC(=O)COC(=O)c2cccnc2Cl)cc1S(=O)(=O)N1CCCCC1 | 0.8% | -9%[15.4 µM] | -6 | -14% | -2.5 | 10% | 5
Cc1nc2ccccc2n1/C(=N\S(=O)(=O)c1ccccc1)c1ccccc1 | 1.7% | ? | -3 | 9% | -0.6 | 18% | -7
O=[N+]([O-])c1ccc(/C=N/N2CCN(c3ccncc3S(=O)(=O)N3CCCCC3)CC2)cc1 | -3.8% | -3% | 4 | -5% | 1.1 | 9% | 7
CC1CC(C)CN(C(=O)COC(=O)CCC(=O)c2cccs2)C1 (stereo unspecified) | / | -2% | -5 | 5% | / | / | /
Cc1cccc(C(=O)N2CCC(n3nnc4cc(F)ccc43)CC2)c1 | -0.8% | -29% | 2 | 12% | 3.3 | -5% | 30
O=C(NCc1cccs1)c1cc(-c2ccccc2)nn1CC1CC(c2cccc([N+](=O)[O-])c2)=NO1 (stereo unspecified) | 2.3% | 16% | -10 | -18% | / | / | /
CC(=O)c1ccccc1OCc1ccc(S(=O)(=O)Cc2ccccc2)cc1 | -2.9% | -2% | 0 | -28% | 0.9 | 16% | -6
COc1ccc(C(=O)NCC(c2ccco2)N(C)C)cc1S(=O)(=O)NCc1ccc(Cl)cc1 (stereo unspecified) | -5.8% | -7% | -39 | -3% | / | / | -1
O=C(C1CCN(S(=O)(=O)c2cccc3cccnc23)CC1)N1CCCC1 | -0.5% | -51%[inhibitor] | -19 | -6% | 4.0 | -1% | /
COc1ccc(NC(=O)CCC2CCCCC2)cc1S(=O)(=O)N1CCCCC1 | -6.4% | -3% | -6 | -18% | 1.7 | -6% | 9
The list continues.
SMILES | ClpP mod | gsp ag | D2 potentiator | gsp antagonist | Menin-MLL FL inh | Sfp PPTase inh | TRPV1 PAM
CCCCn1c(-c2ccncc2)nc2c1c(=O)[nH]c(=O)n2CC(C)C | -10.0% | ? | -9 | -4% | 1.5 | 15% | 0
Cc1c(CCC(=O)N[C@@H](C)C(=O)O)c(=O)oc2cc3oc4c(c3cc12)CCCC4 | -29% | 9% | -14 | -18% | 5.5 | 15% | 23
CCN(CC)c1ccc(/C=N/N=C(c2ccccc2)c2ccccc2)c(O)c1 | -2.6% | -28% | 0 | -1% | ? | -8% | -8
COc1ccccc1CNC(=O)c1ccc(N2CCOCC2)c([N+](=O)[O-])c1 | -1.5% | -18% | -15 | -14% | 1.0 | -12% | 16
O=C(Nc1nnc(CCN2CCCCC2)s1)c1cccc(Cl)c1 | / | 8%[15.4 µM] | -14 | 6% | 5.4 | -17% | 3
CCOC(=O)/C=C1\SCC(=O)N1CC(=O)c1ccc[nH]1 | 0.5% | -3% | -14 | 0% | 7.8 | ? | -4
Cc1c(C(=O)OCC(=O)N(CCC#N)c2ccccc2)oc2c1ccc1ccccc12 | 25µM* | -10% | -11 | -8% | 3.0 | -6% | 12
CCC(C(=O)NCCc1ccccc1OC)n1nc(C)c2c(C)n(-c3ccccc3)nc2c1=O (stereo unspecified) | -0.3% | ? | 0 | -20% | / | 10% | 3
O=C(Cc1cccs1)N1CCN=C1SCc1ccc(Br)cc1 | / | -6%[15.4 µM] | 6 | ? | 0.3 | 11% | 22
Cc1nn(-c2ccccc2)cc1C(c1c(N)[nH]c(=S)[nH]c1=O)c1c(N)[nH]c(=S)[nH]c1=O | / | -20%[15.4 µM] | -6 | -15% | -1.0 | 22µM* | -8
Nc1cc2c(cc1[N+](=O)[O-])OCO2 | / | -12% | -3 | -8% | -4.5 | 2% | 3
Cc1cc(OCC(=O)Nc2cc(-c3nn4c(C)nnc4s3)ccc2C)ccc1Cl | -11% | 6% | -4 | -8% | 2.4 | -14% | /
CCOc1ccc(NC2=NCC(=O)N2CCc2ccccc2)cc1 | 1.1% | -27% | 5 | ? | 2.1 | -1% | 1
CN(C(=O)COC(=O)c1cnc(Cl)c(Cl)c1)C1CCCCC1 | / | -41%[inhibitor] | -6 | -12% | / | / | /
CCCC(c1nnnn1Cc1ccco1)N1CCN(c2ccccc2)CC1 (stereo unspecified) | / | 2%[15.4 µM] | -6 | -2% | -4.5 | -25% | -17
CCOc1ccc(C2c3[nH]c4ccccc4c3C[C@H]3C(=O)N(C4CC4)CC(=O)N23)cc1OC (stereo partly specified) | -0.1% | 0% | 4 | 6% | -9.0 | -7% | -4
CCN(C(=O)COC(=O)c1ccccc1NCCO)C1CCS(=O)(=O)C1 (stereo unspecified) | / | -9%[15.4 µM] | -6 | 7% | / | / | 7
O=C(OCC(=O)c1ccc(Cl)cc1Cl)c1ccccn1 | -0.8% | 13% | -55 | -3% | / | / | /
O=C(CCN1C(=O)c2ccccc2S1(=O)=O)N1CCN(c2ccc(F)cc2)CC1 | / | 5%[15.4 µM] | -3 | -1% | / | / | -16
O=C(C1CCN(S(=O)(=O)c2ccc(Cl)cc2)CC1)N1CCC1 | -1.8% | -7% | -9 | 6% | / | / | 5
COc1ccc(C(=O)OCc2cc(=O)n3c(C)csc3n2)cc1F | ? | 5% | -8 | 2% | / | / | 0
C=C(C)CNC(=S)N/N=C\c1ccc2c(c1)OCO2 | -3.3% | 27% | 0 | 1% | -0.2 | 0% | 4
COc1ccc(N(CC(=O)Nc2c(C)n(C)n(-c3ccccc3)c2=O)S(=O)(=O)c2ccc(C)cc2)cc1OC | / | -57%[inhibitor] | -2 | 7% | 2.7 | 11% | 6
COc1ccc(C2=NO[C@@H]3[C@@H]4C[C@@H]([C@H]5C(=O)N(C)C(=O)[C@@H]45)[C@H]23)cc1 | -8.3% | 23% | 10 | 11% | -0.9 | 1% | -7
Cc1ccc(S(=O)(=O)N2CCCCC2)cc1NS(=O)(=O)c1cccc(C(=O)O)c1 | -2.3% | 15% | -3 | -10% | / | 2% | 2
(more compounds)
SMILES | ClpP mod | gsp ag | D2 potentiator | gsp antagonist | Menin-MLL FL inh | Sfp PPTase inh | TRPV1 PAM
Cc1ccc(S(=O)(=O)c2c(N)n(NC(=O)C3CC3)c3nc4ccccc4nc23)cc1 | 33% | 4% | 0 | -4% | -0.5 | -13% | -2
Cc1ccc(CNC(=O)C(C)OC(=O)c2ccco2)cc1 (stereo unspecified) | -0.9% | -29% | -2 | 14% | 3.0 | 0% | -4
COc1ccc2oc(C(=O)OC(C)C(=O)N(C)c3ccccc3)c(C)c2c1 (stereo unspecified) | 22µM* | 1%[15.4 µM] | -7 | -5% | / | / | 5
CCOC(=O)N1CCC(NC(=O)CSCc2nc(-c3ccccc3Cl)oc2C)CC1 | -2.2% | ? | -11 | -13% | / | 18% | 19
O=C(NN(C(=O)c1ccccc1)c1cccs1)c1ccccc1 | / | -12% | -5 | 5% | / | / | /
COC(=O)C(CCSC)NC(=O)c1cn(-c2ccc(OC)cc2)c(=O)c2ccccc12 (stereo unspecified) | -6.8% | 4% | -7 | 4% | -1.5 | 12% | 19
Oc1c(/C=N/c2ccccn2)sc2ccccc12 | -1.8% | 13% | -5 | -3% | ? | -16% | 9
CCOc1ccc(C(=O)NCC(=O)NNC(=O)C2COc3ccccc3O2)cc1OCC (stereo unspecified) | -11% | -23% | -5 | -14% | / | / | -1
COc1ccc(-c2noc(CCCC(=O)NCc3ccco3)n2)cc1OC | 28µM* | -50%[inhibitor] | -4 | -1% | -0.6 | -1% | -1
CCOC(=O)Cn1c(=N)n(Cc2ccccc2)c2ccccc21 | -2.4% | -57%[inhibitor] | 11 | -5% | 0.7 | 3% | 4
Cc1cc(NC(=O)COc2coc(CN3CCN(c4ccccc4)CC3)cc2=O)no1 | 0.5% | 1%[15.4 µM] | 0 | 10% | / | / | 1

Compounds were not picked by outcome, and some 5.1% of all compounds hit somewhere here.
